# SARS PLpro yeast: qHTS of Yeast-based Assay for SARS-CoV PLP. S. cerevisiae expressing SARS-CoV PLpro, growth rescue; control for the full effect not named in the record. Potency, µM (series often up to 32.9 µM), inactives show at the highest dose activity, positive = growth rescue. actives 0.19% (n = 330,000). AID 485353, 2010; also: 0% is about no effect; nearly all actives have a fitted effect of over 55% in size; growth read by luminescence after 48 h
# Cruzain Triton: qHTS Assay for Promiscuous and Specific Inhibitors of Cruzain (with detergent) | actives 0.43% (n = 200,000) | purified cruzain, Z-FR-AMC fluorescence, 0.01% Triton | Potency, µM, inactives show max response, negative = inhibition, most hits filed as inhibitors | AID 1478, 2009 | Cruzipain (Trypanosoma cruzi), P25779; active = well fitted curve in the direction sought with a large enough effect; inconclusive = small, poorly fitted or top-dose-only effect, or another doubt; inactive = no such curve, though single readings can be large; an effect the other way counts as inactive or inconclusive;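 also: plate controls were neutral wells for no effect and buffer without enzyme for full effect; nearly all actives have a fitted effect of over 40% in size; top concentration of the series not given in the record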
# Target sequence (P25779 123-467 limits assumed): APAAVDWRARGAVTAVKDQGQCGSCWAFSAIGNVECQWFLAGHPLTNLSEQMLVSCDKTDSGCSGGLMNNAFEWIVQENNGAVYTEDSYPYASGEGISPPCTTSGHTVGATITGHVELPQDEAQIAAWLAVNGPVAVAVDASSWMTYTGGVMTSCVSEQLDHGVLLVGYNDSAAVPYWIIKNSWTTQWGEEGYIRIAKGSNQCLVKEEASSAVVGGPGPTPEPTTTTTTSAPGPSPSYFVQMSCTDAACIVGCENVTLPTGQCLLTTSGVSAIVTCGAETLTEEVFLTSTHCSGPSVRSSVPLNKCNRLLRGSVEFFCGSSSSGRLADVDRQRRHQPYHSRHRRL
#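 In this qHTS format, compounds are incubated with 1.5 nM cruzain for 15 min at room temperature before 2 uM Z-FR-AMC is added. Release of AMC is followed at 360/450 nm, and progress is taken as the 60 s fluorescence difference.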
# Lassa entry inh: qHTS for Inhibitors of binding or entry into cells for Lassa Virus. actives 1.2% (n = 300,000). Potency, µM (doses to about 37.9 µM), without a hit: at the highest dose activity change, negative = inhibition, most hits filed as inhibitors. Lassa virus pseudotype entry inhibition, cell reporter; control for the full effect not named in the record; active means well fitted inhibition curve with a large enough effect; inconclusive means small, poorly fitted or top-dose-only effect, or effect the other way; inactive means flat fitted curve, though single readings scatter; tested in HEK293 cells; also: % is scaled to controls: 0 for no effect and ±100 for the full control effect; nearly all actives have a fitted effect of over 50% in size; luciferase read-out
# Cruzain inh noDet: qHTS Assay for Promiscuous and Specific Inhibitors of Cruzain (without detergent). purified cruzain, Z-FR-AMC fluorescence, no detergent. Potency, µM, without a hit: max response, negative = inhibition, hits mostly inhibitors. actives 2.3% (n = 200,000). AID 1476, 2009; active = well fitted curve in the direction sought with a large enough effect; inconclusive = small, poorly fitted or top-dose-only effect, or another doubt; inactive = no such curve, though single readings can be large; an effect the other way counts as inactive or inconclusive;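 also: plate controls were enzyme without inhibitor for no effect and buffer without enzyme for full effect; nearly all actives have a fitted effect of over 40% in size; top concentration of the series not given in the record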
#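 Detergent-free condition (0.00005% Triton X-100) in acetate buffer pH 5.5 with DTT. 1.5 nM enzyme and compound were pre-mixed 15 min, then 2 uM Z-FR-AMC substrate added; reaction progress from fluorescence change between first and third reads (60 s).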
# Marburg entry inh: qHTS for inhibitors of binding or entry into cells for Marburg Virus | Marburg virus pseudotyped entry inhibition, cell reporter; control for the full effect not named in the record; about a third of the inactives were read at about 46 µM | Potency, µM (titrated, usually from 37.8 µM), inactives show at the top dose activity change, negative = inhibition, most hits filed as inhibitors | actives 1.8% (n = 300,000); active = well fitted inhibition curve with a large enough effect; inconclusive = small, poorly fitted or top-dose-only effect, or effect the other way; inactive = flat fitted curve, though single readings scatter; tested in HEK293 cells; about a fifth of its hits are not listed in these tables; also: % is scaled to controls: 0 for no effect and ±100 for the full control effect; luciferase read-out
# NS1 function inh: qHTS Assay for Inhibitors of Influenza NS1 Protein Function; S. cerevisiae slowed by influenza A NS1, growth recovery by OD600; Potency, µM (doses to about 46.1 µM), inactives show top-dose activity, positive = more growth; actives 0.4% (n = 270,000); also: actives are rising curves; nearly all actives have a fitted effect of over 50% in size
#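 Recovery from NS1-induced slow growth read by OD600 in budding yeast switched to galactose assay medium (pH 6.0, -URA) at 1:100 dilution. Compound 23 nl per well; the matching strain lacking NS1 serves as control.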
# RE007 growth inh: qHTS Assay for Inhibitors of the HIV-1 protein Vpr; S. pombe RE007 Vpr strain, BacTiter-Glo ATP luminescence, 24 h; control for the full effect not named in the record; Potency, µM (highest dose often 92.2 µM), for the others: top-dose activity change, negative = less growth; actives 0.21% (n = 360,000); active = well fitted falling curve with a large enough effect; inconclusive = small, poorly fitted or top-dose-only effect; inactive = no such curve, though single readings can be large or run the other way;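 also: % is scaled to controls: 0 for no effect and ±100 for the full control effect; nearly all actives have a fitted effect of over 50% in size; the assay follows cell death caused by Vpr and the record does not say whether a fall means rescue or toxicity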
#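 Fission yeast strain RE007, carrying one chromosomally integrated HIV-1 vpr copy, was seeded at OD 0.01 in PMG+AL medium with 23 nL pinned compound. After 24 h at 30 °C and 99% humidity, viability was read by BacTiter-Glo luminescence.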
# StopGo reporter: High Throughput Screening for Foot and Mouth Disease Virus Antivirals; human cells with a luciferase reporter of 2A StopGo recoding; control for the full effect not named in the record; Potency, µM (series often up to 57.9 µM), inactives show top-dose signal change, negative = less light; actives 1.2% (n = 410,000); AID 1159524, 2015; active = well fitted falling curve with a large enough effect; inconclusive = small, poorly fitted or top-dose-only effect; inactive = no such curve, though single readings can be large or run the other way; tested in HEK293T cells; also: % is scaled to controls: 0 for no effect and ±100 for the full control effect; nearly all actives have a fitted effect of over 45% in size; luciferase light after 4 h
# * hit, by the source's call; ? = inconclusive; / = not tested or not shown; & = joins results of further samples; [ ] = another dose, or the depositor's remark. Unless noted, calls follow the shape of the dose curve; as a rule, active means well fitted rising curve with a large enough effect; inconclusive means small, poorly fitted or top-dose-only effect; inactive means no such curve, though single readings can be large or run the other way. Potency is read from the fitted curve at half-maximal effect.
SMILES,SARS PLpro yeast,Cruzain Triton,Lassa entry inh,Cruzain inh noDet,Marburg entry inh,NS1 function inh,RE007 growth inh,StopGo reporter
COc1cc(C(=O)NCC(c2ccco2)N2CCc3ccccc3C2)cc(OC)c1OC (centres undefined),2%,/,-2%,/,0%,/,-7%,1%
Cc1ccc(CSc2ccc(-c3cccs3)nn2)cc1,21%,-2.1%&-0.8%,-24%,-11%&-12%,-20%&-20%,10%,9%,35%&53%[activator]
CCc1nc(N2CCN(C(C)=O)CC2)c2c3c(sc2n1)CC(C(C)(C)C)CC3 (centres undefined),?,/,/,/,/,?,7%,?
O=C(c1ccc(N2CCOCC2)cc1)c1cccs1,-12%,-10%,?,0%,?,-10%,-18%,-18%
O=C(O)c1cc(-c2cccc(Cl)c2)nc2nc(N3CCCCC3)sc12,4%,-14%,18%,16%,-20%,?,6%,-19%
CCCCC1=CC2=C(c3ccco3)C(=O)C(C)(OC(=O)c3ccc(OC)cc3)C(=O)C2=CN1C1CC1 (centres undefined),0%,/,/,/,/,4%,15%,-25%
Cc1ccccc1N1CCN(C2CCCN(C(=O)c3ccccn3)C2)CC1 (centres undefined),0%,/,?,/,?,-4%,-7%,7%
Cc1ccccc1C(=O)NNC(=S)NC(=O)c1ccc(Cl)cc1Cl,5%,0.8%,-3%,-3%,?,-257%,?,/
CCN(CC(=O)Nc1ccccc1OC)C(=O)CC1CC2CCC1C2 (centres undefined),1%,/,2%,/,0%,/,4%,-18%
CCOC(=O)c1c(C)nc(C)c(C(=O)OCC)c1-c1ccccc1,2%,3.4%,0%,19%,22%,5%,-14%,0%
CC(NC(=O)CN(c1cccc(C(F)(F)F)c1)S(=O)(=O)c1ccc(Cl)c([N+](=O)[O-])c1)c1ccccc1 (centres undefined),-11%,-7.6%,?,?,?,-9%,1%,?
COc1ccc(N2CCN(C(=O)c3cc(S(=O)(=O)N4CCC(C)CC4)cn3C)CC2)cc1,/,-2.1%,1%[46.1 µM],?,/,/,/,-2%
Cc1nonc1N1CCN(Cc2cn[nH]c2-c2ccc3c(c2)OCO3)CC1,3%,/,15%[46.1 µM],/,10%[46.1 µM],0%,-12%,-8%
COc1cccc(CNC(=O)COC(=O)CCc2cc(OC)c(OC)c(OC)c2)c1,/,/,9%,/,-2%,/,27%,-13%
CCCCCN(C(=O)CCC(=O)OCc1ccc(Cl)cc1Cl)c1c(N)n(CCCC)c(=O)[nH]c1=O,-3%,/,?,/,2.5µM*,/,-15%,-28%
CCOC(=O)C1(CC2CCCCO2)CCN(S(=O)(=O)c2ccsc2)CC1 (centres undefined),0%,/,/,/,/,-4%,?,-12%
COc1ccc(C)cc1NC(=O)CN(C)S(=O)(=O)c1ccc2c(c1)n(C)c(=O)c(=O)n2C,4%,/,/,/,/,9%,12%,-1%
Cc1cc(S(=O)(=O)N(Cc2cccs2)Cc2ccccc2F)ccc1-n1cnnn1,3%,-3.1%,?,0%,?,24%,15%,30%
COc1ccccc1/C=c1\sc2nc(-c3ccco3)nn2c1=O,2%,-0.4%,4%,?,-10%&-10%,?,-8%,15%
Cc1nc(S(=O)(=O)N2CCN(c3ccccc3F)CC2)cn1C,/,0.1%,23%[46.1 µM],-5%,/,/,/,-21%
CCOc1ccc(C2NC(=O)NC(C)=C2[N+](=O)[O-])cc1OC (centres undefined),-1%,/,22%,/,1%,4%,40%,8%
CCCn1c(=O)c(C(=O)NCc2ccccc2OC)c(O)c2ccccc21,4%,/,/,/,/,10%,3%,-9%
CCS(=O)(=O)N1Cc2ccccc2CC1C(=O)NC(C)C12CC3CC(CC(C3)C1)C2 (centres undefined),0%,-1.8%,?,?,?,5%,-7%,-15%
CCCCC1=CC2=C(c3ccco3)C(=O)C(C)(OC(=O)c3ccc(OC)cc3)C(=O)C2=CN1CCCCO (centres undefined),1%,/,/,/,?,0%,-9%,-16%
O=C(/C=C/c1ccccc1Cl)Nc1ccncc1,-17%,-10%,?,-13%,6%,-79%,-9%,0%

# The final 7 records of the part above lead into the next:
SMILES,SARS PLpro yeast,Cruzain Triton,Lassa entry inh,Cruzain inh noDet,Marburg entry inh,NS1 function inh,RE007 growth inh,StopGo reporter
COc1ccccc1/C=c1\sc2nc(-c3ccco3)nn2c1=O,2%,-0.4%,4%,?,-10%&-10%,?,-8%,15%
Cc1nc(S(=O)(=O)N2CCN(c3ccccc3F)CC2)cn1C,/,0.1%,23%[46.1 µM],-5%,/,/,/,-21%
CCOc1ccc(C2NC(=O)NC(C)=C2[N+](=O)[O-])cc1OC (centres undefined),-1%,/,22%,/,1%,4%,40%,8%
CCCn1c(=O)c(C(=O)NCc2ccccc2OC)c(O)c2ccccc21,4%,/,/,/,/,10%,3%,-9%
CCS(=O)(=O)N1Cc2ccccc2CC1C(=O)NC(C)C12CC3CC(CC(C3)C1)C2 (centres undefined),0%,-1.8%,?,?,?,5%,-7%,-15%
CCCCC1=CC2=C(c3ccco3)C(=O)C(C)(OC(=O)c3ccc(OC)cc3)C(=O)C2=CN1CCCCO (centres undefined),1%,/,/,/,?,0%,-9%,-16%
O=C(/C=C/c1ccccc1Cl)Nc1ccncc1,-17%,-10%,?,-13%,6%,-79%,-9%,0%
Cc1ccc(C(=O)CSC2=C(C#N)C(c3ccco3)CC(=O)N2)c(C)c1 (centres undefined),2%,-9.4%,3%,-11%,-1%,4%,6%,?
CCC(C)[C@H](NC(=O)NCc1cccc(OC)c1)C(=O)OC (some centres undefined),13%,-1.0%,1%,1%,4%,2.2µM*,17%,-7%
Cc1ccc(-c2nnc(SCC(=O)CC(=O)Nc3ccccc3)n2-c2ccccc2)cc1,0%,-5.0%,0%,-29%,-36%,?,7%[3.69 µM],-16%
CC(C)(C)c1ccc(OCC(=O)NNC(=S)NC(=O)c2ccco2)c(Br)c1,4%,/,?,/,?,0%,-4%,4%
Nc1cc(S(=O)(=O)N2CCOCC2)ccc1N1CCCCC1,-42%,/,?,/,-15%[46.1 µM],/,0%,-3%
O=C(O)Cn1c(O)c(C2=c3ccccc3=NC2=O)sc1=O,0%,/,/,/,/,5%,-11%,-7%
N/C(=N/OC(=O)c1ccccc1F)c1nonc1N,-2%,/,/,/,/,-8%,10%,29%
NC(=O)CC(NC(=O)Cc1ccc(Br)cc1)c1ccc(NCc2ccc(F)cc2)c([N+](=O)[O-])c1 (centres undefined),12%,/,/,/,/,?,-6%,0%
CCCCn1c(=O)c(C(=O)NCc2ccccc2)c(O)c2ccccc21,18%,/,/,/,/,1%,17%,-16%
Cc1ccc(S(=O)(=O)Nc2ccc3c(c2)OCCO3)cc1C,0%,/,0%,/,-16%[46.1 µM],-2%,9%,-21%
O=C(c1ccccc1)N1CCCc2ccccc21,1%,0.2%,7%,-4%,20%,-12%,5%,-10%
CC(C)(Cc1ccc(O)cc1)NC(=O)CC(=O)N=Nc1c(O)[nH]c2ccc(Br)cc12,1%,/,17%[46.1 µM],/,-5%[46.1 µM],/,6%,-7%
CCOC(=O)c1c(-c2ccccc2)oc2ccc(O)c(CN3CCCC3)c12,4%,3.6%,?,-2%,23µM*,-16%,-1%[3.69 µM],-22%
CCN1C(=O)c2ccccc2Sc2ccc(NC(=O)c3ccc(C#N)cc3)cc21,/,-0.4%,14%[46.1 µM],-1%,/,/,/,?
Cc1cccc(NC(=O)CSc2nc(=O)n(CCN3CCOCC3)c3c2CCC3)c1,/,-1.6%,-14%[46.1 µM],0%,/,/,/,-12%
CCN1CCN(CCCNC(=O)c2ccc3c(c2)sc2nc(-c4ccc(OC)cc4)cn23)CC1,/,-4.0%,-3%[46.1 µM],?,/,/,/,21%
COc1ccc(/C=C(/NC(=O)c2ccc(OC)c(OC)c2)C(=O)NCCc2c[nH]c3ccccc23)cc1,-11%,-3.0%,-14%,?,17%,7.9µM*,?,-14%
CC(C)N(C)CCOC(=O)/C=C/c1ccccc1,-13%,-0.7%,19%,8%,-19%,-5%,-2%,-4%
CCOC(=O)c1ccccc1NC(=O)COC(=O)CCCOc1ccccc1,-7%,/,29%,/,28%,/,-26%,-21%
Cc1noc(C)c1COc1ccc(C(=O)OCC(=O)NC2CCCCC2C)cc1 (centres undefined),-3%,0.0%,-11%,-4%,-16%,-13%,15%,-4%
CCCCOC(=O)C1CN(c2ccccc2)N=C1C(C)=O (centres undefined),-1%,/,?,/,0%[46.1 µM],-9%,-17%,-17%
COc1ccc(NC(=S)NC(=O)C2CCCCC2)cc1,1%,/,/,/,/,-12%,-3%,30%[activator]
CCOc1cc(/C=C2/C(=O)NC(=O)N(c3ccc(CC)cc3)C2=O)ccc1OC(=O)c1cccs1,-1%,-2.1%,22%,?,7%,?,1%,5%
COc1cc(C(=O)NCCC(=O)N2CCCCC2)cc(OC)c1OC,3%,/,8%[46.1 µM],/,18%[46.1 µM],6%,-2%,-1%
CC1(C)CC(=O)C2=C(C1)N(c1ccc(Cl)cc1)C(=O)C2(O)C(F)(F)F (centres undefined),6%,1.3%,-3%,-2%,-23%,4%,-1%,7%
C=CCn1c(SCc2c(F)cccc2Cl)nnc1-c1ccco1,-1%,3.7%,8%,5%,7%,-96%,11%,-1%
O=C(Nc1ccccc1)c1ccccc1NS(=O)(=O)c1ccc(Cl)s1,-101%,-11%,?,-11%,20µM*,-34%,-25%,1%

# Bioassay records from PubChem.
